Bioassay records (PubChem BioAssay)
Sfp PPTase inh – qHTS Assay for Inhibitors of Bacillus subtilis Sfp phosphopantetheinyl transferase (PPTase); 4'-phosphopantetheinyl transferase ffp (Bacillus subtilis), Q9F4F7; Potency, µM, without a hit: max response, negative = inhibition, hits mostly inhibitors; Biochemical Sfp PPTase activity, qHTS; AID 1490, 2009; actives 3.5% (n = 310,000); active = well fitted inhibition curve with a large enough effect; inconclusive = small, poorly fitted or top-dose-only effect, or another doubt; inactive = no such curve, though single readings can be large or run the other way;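 also: the enzyme is Sfp with the accession as filed and its product quenches rhodamine fluorescence; 0% = enzyme reaction without inhibitor and -100% = no enzyme wells; top concentration of the series not given in the record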
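Fluorescence-quenching assay with 15 nM Sfp, 5 uM rhodamine-CoA and 12.5 uM BHQ-2-labelled ybbR peptide in pH 7.6 Hepes/MgCl2 buffer. Enzyme was pre-incubated with compound for 15 min at room temperature. Rate was taken from the 30-min fluorescence change (525/598 nm).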
* = called active by the depositor; u = inconclusive; & = joins results of further samples. Potency is read from the fitted curve at half-maximal effect. A portion of the library; the hit share may differ from the screen's.

| structure | Sfp PPTase inh |
| --- | --- |
| CCN1C[C@]2(C)CC[C@H](OC)[C@]34C5C[C@@H]6CC[C@@](O)(C5C(=O)O6)C(C13)[C@@H](OC(=O)c1ccccc1)C24 | 9.1% |
| CCCC[C@H]1C(=O)O[C@H](C)[C@H](NC(=O)c2cccc(NC=O)c2OC)C(=O)O[C@@H](C)[C@@H]1OC(=O)CC(C)C | 18.7%&19.4%&18.9% |
| ClC(Cl)(Cl)Cl | 4.9% |
| CCCC[C@@H](C)[C@@H](OC(=O)C[C@@H](CC(=O)O)C(=O)O)[C@H](C[C@@H](C)CCCCCC[C@@H](O)C[C@H](O)[C@H](C)N)OC(=O)C[C@@H](CC(=O)O)C(=O)O | 14.0% |
| NC(N)=NCCCCCCCCCCN=C(N)N | u |
| CC1=C(O)C(=O)C=C2C1=CC=C1[C@]2(C)CC[C@@]2(C)C3C[C@](C)(C(=O)O)CC[C@@]3(C)CC[C@@]12C (stereo not given in full) | -99.1% |
| c1ccc(C2CNCc3ccccc32)cc1 (stereo not given) | 3.9% |
| CN1CC[C@@]23CCCCC2C1Cc1ccc(O)cc13 (stereo not given in full) | 11.1% |
| N#CC(C#N)=Cc1ccc([N+](=O)[O-])c(O)c1 | 35.5µM* |
| CN1C(=O)CCS(=O)(=O)[C@H]1c1ccc(Cl)cc1 | 3.1% |
| CC(C)C[C@H](NC(=O)CNC(=O)[C@H](CCC(N)=O)NC(=O)[C@H](Cc1ccc(O)cc1)NC(=O)[C@@H](NC(=O)[C@H](Cc1ccc(O)cc1)NC(=O)CNC(=O)[C@@H](N)CCCN=C(N)N)C(C)C)C(=O)O | 0.1% |
| C[C@H](NC(=O)[C@@H](N)Cc1ccc(O)cc1)C(=O)NCC(=O)N(C)[C@@H](Cc1ccccc1)C(=O)N[C@H](CO)CCS(C)=O (stereo not given in full) | -1.7% |

Individual results from the results shown.
Result for `CN1CC[C@@]23CCCCC2C1Cc1ccc(O)cc13` (stereo not given in full) in Sfp PPTase inh: 11.1%
Result for `ClC(Cl)(Cl)Cl` in Sfp PPTase inh: 4.9%

Next part:
| structure | Sfp PPTase inh |
| --- | --- |
| c1ccc2sc(C3(N4CCCC4)CCCCC3)cc2c1 | 8.6% |
| CCN(CC)c1nc(C)cc(OP(=S)(OC)OC)n1 | 6.4% |
| O=C1CCO1 | 19.9%&6.7% |
| C#CC(C)(O)CC (stereo not given) | -1.9% |
| CNC(=O)[C@H]1C[C@@H]1[C@H](NP(=O)(c1ccccc1)c1ccccc1)c1ccccc1 | 19.4% |
| CN1[C@@H](C[C@@H](O)c2ccccc2)CCC[C@@H]1C[C@H](O)c1ccccc1 | 1.4% |
| NP(N)(=O)NC(=O)c1ccc(F)cc1 | 7.2% |
| CN(C)C1C(=O)C(C(N)=O)=C(O)[C@@]2(O)C(=O)C3=C(O)c4c(O)cccc4[C@](C)(O)C3C(O)C12 (stereo not given in full) | -64.5% |
| CC[N+](CC)(CCCNC1=CC(=O)C(NCCC[N+](CC)(CC)Cc2ccccc2)=CC1=O)Cc1ccccc1 | 14.7%&2.8% |
| NCC(CS(=O)(=O)O)c1ccc(Cl)cc1 (stereo not given) | -9.0% |
| CC1C(=O)OC2C(O)C34C5OC(=O)[C@@]3(OC3OC(=O)[C@H](O)[C@]34C(C(C)(C)C)C5O)[C@]12O (stereo not given in full) | 4.4% |
| CN1C(=O)CC(=O)N(c2ccccc2)c2cc(Cl)ccc21 | 14.4% |

Five records drawn at random from the list so far, as already listed:
| structure | Sfp PPTase inh |
| --- | --- |
| CN(C)C1C(=O)C(C(N)=O)=C(O)[C@@]2(O)C(=O)C3=C(O)c4c(O)cccc4[C@](C)(O)C3C(O)C12 (stereo not given in full) | -64.5% |
| NP(N)(=O)NC(=O)c1ccc(F)cc1 | 7.2% |
| CC[N+](CC)(CCCNC1=CC(=O)C(NCCC[N+](CC)(CC)Cc2ccccc2)=CC1=O)Cc1ccccc1 | 14.7%&2.8% |
| C[C@H](NC(=O)[C@@H](N)Cc1ccc(O)cc1)C(=O)NCC(=O)N(C)[C@@H](Cc1ccccc1)C(=O)N[C@H](CO)CCS(C)=O (stereo not given in full) | -1.7% |
| c1ccc(C2CNCc3ccccc32)cc1 (stereo not given) | 3.9% |

(further entries)
| structure | Sfp PPTase inh |
| --- | --- |
| Clc1ccc(C2CC3CCC2N3)cn1 (stereo not given) | -11.1%&22.7%&8.1% |
| CC(=O)N1CC[N+](C)(C)CC1 | 0.1%&2.3% |
| CN1C2CC(OC(=O)C(CO)c3ccccc3)CC1C(O)C2 (stereo not given) | -7.3% |
| Cc1nn(C)c(C)c1-c1cccc2c1CCC(N(C)C)C2 (stereo not given) | -0.1% |
| CCCCCCCCCCCCCCCC(=O)OC[C@H](COP(=O)([O-])OCC[N+](C)(C)C)OC(C)=O | 6.2%&9.9% |
| C[C@H]1O[C@@H](O[C@H]2[C@@H](O)C[C@H](O[C@H]3[C@@H](O)C[C@H](O[C@H]4CC[C@]5(C)C6CC[C@]7(C)[C@@H](C8=CC(=O)OC8)CC[C@]7(O)C6CC[C@@H]5C4)O[C@@H]3C)O[C@@H]2C)C[C@H](O)[C@@H]1O (stereo not given in full) | -1.7% |
| CCN1C[C@@]2(COC)[C@H]3[C@@H](OC)[C@H]4C1[C@@]3([C@H](OC)C[C@@H]2O)[C@H]1C[C@@]2(O)[C@@H](OC(=O)c3ccccc3)[C@@H]1[C@@]4(OC(C)=O)[C@H](O)[C@@H]2OC | 6.4% |
| O=C1C=C2C(=CCOC2O)O1 (stereo not given) | -27.5% |
| CCC1OC2(C)C(O)C(/C=C/C=C/C=C/c3oc(=O)cc(OC)c3C)OC1(C)C2OC(C)=O (stereo not given) | -17.1% |
| C/C=C1/C[N@@+]2(C)CC[C@]34C(=C(C=O)[C@H]1C[C@H]32)Nc1ccccc14 | u |
| CCC[C@@](C)(COC(N)=O)COC(=O)NC(C)C | 7.0% |
| O=C(NC(=O)c1c(F)cccc1F)Nc1cc(Cl)c(OC(F)(F)C(F)C(F)(F)F)cc1Cl (stereo not given) | 13.5%&13.8% |

| structure | Sfp PPTase inh |
| --- | --- |
| CP(=O)(O)C1=CCNCC1 | -0.6% |
| NC(N)=NOCCC(N)C(=O)O (stereo not given) | -0.2% |
| COCCN(C(=O)CCl)c1c(C)cccc1C | 19.9% |
| CCCC(=O)O[C@@H]1[C@@H](C)[C@@]2(O)[C@@H](C=C(CO)C[C@@]3(O)C(=O)C(C)=C[C@@H]23)[C@@H]2C(C)(C)[C@]12OC(=O)CCC | -13.1% |
| Cc1ccc2cc3c(ccc4ccccc43)c3c2c1CC3 | 50.1µM* |
| Clc1ccc(C2=CCC[C@H]3CC[C@@H]2N3)cn1 | -15.9% |
| Cc1ccc2c(c1)C1(CCN(CCc3nc(-c4ccccc4)oc3C)CC1)OC(=O)N2 | -6.7% |
| O=C1C=C2C=CC3C[C@@]2(O1)C1CCCCN31 (stereo not given in full) | 14.7% |
| CCN1C[C@]2(C)CC[C@H](O)[C@@]34C5C[C@@H]6[C@@H](OC)C[C@@](O)(C5[C@H]6O)[C@@H](CC23)[C@@H]14 (stereo not given in full) | 17.7%&9.0% |
| CCOP(=S)(OCC)OCCSCC | -9.9% |
| C[N+]1(CCC(C(N)=O)(c2ccccc2)c2ccccc2)CCCCC1 | 1.3% |
| C[N+]1([O-])[C@@H]2CC[C@H]1CC(OC(=O)[C@@H](CO)c1ccccc1)C2 (stereo not given in full) | -10.8% |

compound: C[N+]1(C)CCCCC1COC(=O)C(O)(c1ccccc1)c1ccccc1 (stereo not given)
  Sfp PPTase inh: -2.3%

compound: c1cncc([C@H]2CCCCN2)c1
  Sfp PPTase inh: 10.1%

compound: C=CCN1CCC2(C)c3cc(O)ccc3C[C@H]1[C@H]2C
  Sfp PPTase inh: 8.0%

compound: O=C1CC(O)(CF)CCO1 (stereo not given)
  Sfp PPTase inh: 6.2%

compound: CC(=O)[C@H]1CC[C@H]2C3CC[C@H]4C[C@H](O)CC[C@]4(C)C3CC[C@]12C (stereo not given in full)
  Sfp PPTase inh: -11.9%

compound: CC(N)Cc1ccc(O)cc1 (stereo not given)
  Sfp PPTase inh: 8.2%

compound: C[C@]12Cc3nonc3C[C@@H]1CC[C@@H]1[C@@H]2CC[C@@]2(C)[C@H]1CC[C@]2(C)O
  Sfp PPTase inh: 2.6%

compound: C[C@H](N)Cc1c[nH]c2ccc(O)cc12
  Sfp PPTase inh: 2.7%

compound: CC1=C(O)C(=O)[C@@H]2O[C@@H]2C1=O
  Sfp PPTase inh: u

compound: Oc1ccc2c3c1O[C@H]1c4[nH]c5c(c4C[C@@]4(O)[C@@H](C2)N(CC2CC2)CC[C@]314)C[C@@]1(O)[C@H]2Cc3ccc(O)c4c3[C@@]1(CCN2CC1CC1)[C@H]5O4
  Sfp PPTase inh: -15.5%

compound: C[C@@]12CC(=O)[C@H]3[C@@H](CCC4=CC(=O)CC[C@]43C)[C@H]1CCC2=O
  Sfp PPTase inh: 12.8%

compound: C=CCN(C1=NCCN1)c1c(Cl)cccc1Cl
  Sfp PPTase inh: -13.5%&-2.8%

compound: C=C[C@H]1CN2CC[C@H]1C[C@H]2c1[nH]c2ccccc2c1CCO
  Sfp PPTase inh: -1.2%

compound: CC(C)(C)C(O)C(Oc1ccc(-c2ccccc2)cc1)n1cncn1 (stereo not given)
  Sfp PPTase inh: -16.3%

compound: O=c1n(Cl)c(=O)n(Cl)c(=O)n1Cl
  Sfp PPTase inh: -5.2%

compound: CCCCCCCCCCCCCCCCOC[C@@H](O)COP(=O)([O-])OCC[N+](C)(C)C
  Sfp PPTase inh: 6.9%&-18.3%

compound: ClCC1CO1 (stereo not given)
  Sfp PPTase inh: 3.9%

compound: CCCCCCCCCC(=O)O[C@H]1CC[C@H]2[C@@H]3CCC4=CC(=O)CC[C@]4(C)[C@H]3CC[C@]12C
  Sfp PPTase inh: -23.1%

compound: Cc1cccc(NC(=O)N[C@@H]2N=C(c3ccccc3)c3ccccc3N(CC(=O)c3ccccc3C)C2=O)c1
  Sfp PPTase inh: 11.9%

compound: CN1CCc2cc3c(cc2[C@@H]1O)OCO3
  Sfp PPTase inh: 14.3%

compound: OCC1CCCN2CCCCC12 (stereo not given)
  Sfp PPTase inh: 15.0%&16.7%

compound: CCNC(=O)[C@@H]1O[C@@H](n2cnc3c(N)ncnc32)[C@H](O)[C@H]1O
  Sfp PPTase inh: 18.4%

compound: COC1=C[C@H]2[C@H]3Cc4ccc(OC)c(O)c4[C@@]2(CCN3C)CC1=O
  Sfp PPTase inh: -5.7%

compound: OC(O)C(Cl)(Cl)Cl
  Sfp PPTase inh: 16.4%

compound: C=CCN1CC[C@@]23c4c5ccc(O)c4O[C@H]2/C(=N\N=C2/CC[C@@]4(O)[C@H]6Cc7ccc(O)c8c7[C@@]4(CCN6CC=C)[C@@H]2O8)CC[C@]3(O)[C@@H]1C5
  Sfp PPTase inh: -9.8%

compound: C[C@H](N)Cc1c[nH]c2ccc(OCc3cccs3)cc12
  Sfp PPTase inh: -17.3%

compound: O=C1NC(=O)N(c2ccccc2)C(=O)/C1=C\c1ccc([N+](=O)[O-])o1
  Sfp PPTase inh: 17.8µM*

compound: CC[C@@H]1/C=C/C=C/C[C@H](C)[C@@H](O)[C@](C)(O)C(=O)[C@H](C)[C@@H](O)[C@H](C)C(=O)[C@H](C)[C@@H](O)[C@H](C)/C=C/C(=O)O[C@H]2[C@@H](C)[C@@H](CC1)O[C@@]1(CC[C@@H](C)[C@@H](C[C@H](C)O)O1)[C@@H]2C
  Sfp PPTase inh: 0.0006µM*

compound: COc1cc2c(cc1OC)[C@@H]1C(=O)c3ccc4oc(C(C)C)cc4c3OC1CO2 (stereo not given in full)
  Sfp PPTase inh: -39.6%

compound: NC[C@H](CS(=O)(=O)O)c1ccc(Cl)cc1
  Sfp PPTase inh: -10.2%

compound: CN(C)C1C(=O)C(C(N)=O)C(=O)C2(O)C(=O)C3C(=O)c4c(O)cccc4C(C)(O)C3C(O)C12 (stereo not given)
  Sfp PPTase inh: 7.94µM*

compound: CN(C(=O)Cc1ccc(Cl)c(Cl)c1)C(CN1CCCC1)c1cccc(N=C=S)c1 (stereo not given)
  Sfp PPTase inh: 44.7µM*

compound: CC(=O)OCC(N)C(=O)c1ccccc1 (stereo not given)
  Sfp PPTase inh: -10.7%

compound: C[C@@H](CO)NC(=O)[C@@H]1C=C2c3cccc4[nH]cc(c34)C[C@H]2N(C)C1
  Sfp PPTase inh: 20.8%

3 compounds out of the list, sorted by heavy-atom count, low to high.
compound: CC(=O)OCC(N)C(=O)c1ccccc1 (stereo not given)
  Sfp PPTase inh: -10.7%

compound: C[C@@H](CO)NC(=O)[C@@H]1C=C2c3cccc4[nH]cc(c34)C[C@H]2N(C)C1
  Sfp PPTase inh: 20.8%

compound: CN(C(=O)Cc1ccc(Cl)c(Cl)c1)C(CN1CCCC1)c1cccc(N=C=S)c1 (stereo not given)
  Sfp PPTase inh: 44.7µM*
